Bioassay records (PubChem)
Rce1 inh: yeast Ras-converting enzyme inhibition. Q03530. yeast membranes, quenched prenylated peptide cleavage fluorescence. calls only. hit rate 0.27% among 290,000;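 active means fall in fluorescence gain of 50% or more versus controls, with final raw signal at or below 3038400; inconclusive means same 50% fall but final raw signal above 3038400; inactive means fall in fluorescence gain under 50%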;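 further: plate controls were neutral control wells for no effect and wells lacking membranes for full effect; tested at 10 µM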
Target sequence (Q03530 whole entry, looked up): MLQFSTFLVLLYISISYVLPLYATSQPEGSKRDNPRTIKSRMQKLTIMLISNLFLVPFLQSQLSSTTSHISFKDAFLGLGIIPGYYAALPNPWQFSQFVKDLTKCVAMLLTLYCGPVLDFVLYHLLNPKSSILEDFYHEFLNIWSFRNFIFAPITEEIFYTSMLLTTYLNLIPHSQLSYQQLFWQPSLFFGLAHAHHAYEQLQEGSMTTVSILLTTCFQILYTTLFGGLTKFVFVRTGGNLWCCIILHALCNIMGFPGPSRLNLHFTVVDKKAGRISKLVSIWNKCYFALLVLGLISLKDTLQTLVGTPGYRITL
PABP FP inh: blocks human PABP binding to poly(A) RNA; inhibition, % at 35 µM; hit rate 1% among 290,000; fluorescence polarization;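 active means 50% or more with normal probe brightness, or confirmed in later tests; inconclusive means above 50% with abnormal brightness, or retests that disagree; inactive means below 50% or failed in later tests; about a fifth of its hits are not listed in these tables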;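 further: calls also rest on retests at 20 µM and on dose response follow-up; controls were probe without protein and protein plus probe with vehicle; some compounds called inactive have numbers as strong as hits; many hits fall short of the cut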
Target sequence (P11940 whole entry, looked up): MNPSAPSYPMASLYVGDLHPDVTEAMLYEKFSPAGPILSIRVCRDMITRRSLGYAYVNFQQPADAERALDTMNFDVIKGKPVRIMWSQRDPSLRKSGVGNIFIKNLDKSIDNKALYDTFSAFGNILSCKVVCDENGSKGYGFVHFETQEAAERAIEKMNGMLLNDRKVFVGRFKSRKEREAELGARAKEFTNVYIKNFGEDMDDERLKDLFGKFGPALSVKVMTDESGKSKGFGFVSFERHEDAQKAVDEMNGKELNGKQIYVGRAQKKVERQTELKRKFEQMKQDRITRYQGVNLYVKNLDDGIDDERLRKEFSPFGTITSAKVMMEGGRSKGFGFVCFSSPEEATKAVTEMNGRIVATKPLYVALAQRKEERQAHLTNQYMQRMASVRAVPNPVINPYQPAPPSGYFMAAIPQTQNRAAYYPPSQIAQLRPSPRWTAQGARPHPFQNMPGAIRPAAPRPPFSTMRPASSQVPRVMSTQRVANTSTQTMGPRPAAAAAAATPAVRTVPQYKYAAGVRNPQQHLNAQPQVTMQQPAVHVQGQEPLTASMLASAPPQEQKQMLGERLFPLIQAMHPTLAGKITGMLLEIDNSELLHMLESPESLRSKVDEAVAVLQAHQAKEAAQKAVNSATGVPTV
CSC inhib: blocks cancer stem cells. cancer stem cell-like cells viability, luminescence. inhibition, % at 7.5 µM. hit rate 1.1% among 300,000. AID 2717;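 active means mean at 75% or more and at least half the replicates too; inconclusive means mean and replicates disagree; tested in HMLE shEcad cells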;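 further: 0% = median of negative and 100% = median of positive control wells; the first replicate is given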
MT1-MMP act inh: blocks activation of human MT1-MMP; GFP/RFP ratio change, % at 20 µM; AID 651647; P50281; hit rate 0.061% among 360,000; HT1080 RFP-PRO-GFP cells, GFP/RFP ratio fluorescence, overnight; percent of plate control window, DMSO zero;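 active means GFP/RFP ratio change of at least 30% with cell ATP level not reduced by more than half and red fluorescence within 50% of control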; further: strong numbers were not always called active
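Material – HT1080 RFP-PRO-GFP cells · Control set – DMSO wells and RFP-L50D-GFP cells · Incubation – overnight cell settling, then overnight compound exposure, 37 °C, 5% CO2 · Compound dosing – single-point 20 µM compound, 1% DMSO · Read-out – GFP/RFP fluorescence ratio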
eIF4H FP inh: inhibitors of RNA binding by human eIF4H; eIF4H fluorescence polarization binding assay; inhibition, % at 35 µM; hit rate 0.94% among 290,000;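 active means 50% or more with normal probe brightness, or confirmed in later tests; inconclusive means above 50% with abnormal brightness, or retests that disagree; inactive means below 50% or failed in later tests; about a fifth of its hits are not listed in these tables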;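 further: calls also rest on retests at 20 µM and on dose response follow-up; 0% = protein and probe with vehicle and 100% = probe without protein; strong numbers were not always called active; many hits fall short of the cut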
UUG fidelity: modulators of start codon recognition fidelity in yeast. hit rate 0.13% among 350,000. activity score, % at 18.7 µM. S. cerevisiae UUG-firefly luciferase reporter, luminescence/redox ratio;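 active means replicate mean at a twofold rise or more, about +100% in these data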;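 further: firefly luciferase made from a UUG start codon reports start codon fidelity; reporter light over untreated wells divided by growth signal over untreated wells; some hits fall short of that in this replicate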
Env fusion inh: HIV envelope-mediated fusion inhibition; HeLa-JRFL Env/CEM21 cell fusion, luciferase; inhibition, % at 12.3 µM; hit rate 1.1% among 360,000; AID 651610;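 active means mean replicate inhibition score of at least 50 and every replicate individually at or above 50; inconclusive means only one of the two criteria met; inactive means mean below 50 and not all replicates reaching 50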;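 further: 0% = plate neutral controls and 100% = maraviroc near 300 nM; one replicate is shown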
eIF4H FP inh retest: also measured in eIF4H FP inh; calls as there; inhibition, %; compound at 20 µM; confirmation average;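 mean of two retest wells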
PABP FP inh retest: second read-out of PABP FP inh, no call of its own (marks repeat the call); inhibition, %; compound at 20 µM; confirmation repeats;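 mean of two retest wells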
MT1-MMP act inh RFP: also measured in MT1-MMP act inh; calls as there; RFP signal change, %; measured here: RFP expression control read;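 0 = vehicle wells; hits needed this value within 50% of zero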
* hit, by the source's call; i = inactive; ? = inconclusive; · = not tested or not shown; & = joins results of further samples; [ ] = dose if it differs, or a comment. A portion of the library, so the mix of outcomes need not match the whole.

SMILES	Rce1 inh	PABP FP inh	CSC inhib	MT1-MMP act inh	MT1-MMP act inh RFP	eIF4H FP inh	UUG fidelity	Env fusion inh	others
CCOc1ccc(-c2noc(-c3csc([C@@H]4O[C@H](CO)[C@H](O)[C@H](O)[C@H]4O)n3)n2)cc1	·	·	·	5	-3	·	-22	24
CCN(CC)S(=O)(=O)c1cccc(NC(=O)COC(=O)CCC(=O)c2cccs2)c1	i	-4	-7	2	4	1	-1	·
Cc1cc(N/C=C/C(=O)c2ccccc2)ccc1Br	i	8	4	-3	-1	-7	-17	-181
O=C1C(Cc2ccccc2)Nc2ncnc(N3CCc4ccccc4C3)c2N1Cc1ccc(Cl)cc1 (stereo not given)	i	·	67	-3	-3	·	-4	·
CC(=O)c1ccc([N+](=O)[O-])c(CS(=O)(=O)c2ccccc2)c1	i	-11	-1	2	2	1	-5	14
NC(COCc1ccccc1)c1csc(NC(=O)Nc2cccc(C(F)(F)F)c2)n1 (stereo not given)	·	·	·	-1	-1	·	4	13
COc1ccc(C)cc1NC(=O)C(OC(=O)C1=NNC(=O)CC1)c1ccccc1 (stereo not given)	·	·	-14	2	-2	·	-2	·
CCOC(=O)NC(Nc1nnc(SCC)s1)(C(F)(F)F)C(F)(F)F	i	-7	-8	2	5	6	-11	·
COc1ccccc1CNc1nc(-c2ccccc2CO)c2sccc2n1	·	·	·	-6	-4	·	-10	-17
CCN1CC(c2ccccc2)C(c2ccc(Cl)cc2)=N1 (stereo not given)	i	3	-10	-5	-4	0	-1	16
COc1cc(NC(=O)COc2ccccc2)ccc1NC(=O)c1ccco1	·	6	-5	1	2	-10	-14	6
Cc1ccc(NC(=O)C2CCCN2C(=O)Oc2ccccc2)c(C)c1 (stereo not given)	i	5	-2	-3	0	5	0	-30
N#Cc1ccc(NC(=O)Cn2cnc(S(=O)(=O)N3CCOCC3)c2)cc1	i	-2	-9	-2	3	-14	-9	·
Cc1ccnn1Cc1cc(C(=O)O)c2ccccc2n1	i	-6	-14	1	5	-9	·	-2
Cc1cc(C)cc(C(N)=Nc2cccc(C#N)c2)c1	i	10	-10	2	5	-3	-1	-15
Cc1ccc(CNC(=O)C2CC(c3cccc([N+](=O)[O-])c3)=NO2)o1 (stereo not given)	i	2	33	1	6	0	-9	-60
CC(=O)Nc1ccc(S(=O)(=O)N(Cc2ccccc2)c2ccccn2)cc1	i	-4	-12	3	-2	4	-2	2
CCn1nc(NC(=O)COC)c2cc3cc(C)ccc3nc21	i	43	1	1	-1	2	·	-9
Cc1ccc(N(Cc2ccc([N+](=O)[O-])cc2)C(=O)c2ccco2)cc1C	i	-6	3	3	0	1	·	-10
CN(CC(=O)Nc1cccnc1)S(=O)(=O)c1ccccc1	i	-15	-7	3	-2	2	7	-24
O=C(N/N=C/c1cc([N+](=O)[O-])ccc1O)c1ccncc1	i	-7	-3	0	-3	7	·	13
O=C(CCC(=O)OCC(F)(F)C(F)F)NCc1ccccc1	i	4	-8	8	8	9	-15	4
CC(=O)c1sc(NC(=O)C=C(C)C)nc1C	i	-4	·	-1	-1	-12	-15	-42
O=C(Cc1ccc(Br)cc1)Nc1ccc(Cl)cc1	i	3	-3	1	0	-6	·	-6
COc1ccc(N2CC(C(=O)N3CCN(S(=O)(=O)c4ccc(F)c(F)c4)CC3)CC2=O)c(OC)c1 (stereo not given)	·	·	·	-1	1	·	-18	6
COc1ccccc1C(=O)Nc1ccc(S(=O)(=O)N2CCc3ccccc32)cc1	i	-8	9	1	-12	-2	7	·
CN(C)c1ccc(/C=C/C(=O)c2ccccc2O)cc1	i	-2	30	-38	2	?	·	-82
Cn1c(=O)[nH]c(=O)c2c1nc(N1CCCC1)n2CCCSc1nnnn1-c1ccccc1	i	-2	8	-1	-1	3	·	14
CCCCOC(=O)CSc1nnc(-c2cc(OC)c(OC)c(OC)c2)o1	i	9	-14	6	-2	-4	5	-37
O=C(Nc1ccc(Br)cn1)c1ccc(Br)s1	i	2	49	-7	-12	-2	-14	-290
Cn1c(=O)c2c(SCC(=O)NC3CCCC3)nc(CC(C)(C)C)nc2n(C)c1=O	i	-4	-3	-4	-1	1	-18	21
COCCCn1c(SCC(=O)Nc2ccc(C)cc2)nc2ccccc2c1=O	i	0	3	0	0	-1	·	7
CCCNC(=O)NC(=O)COc1c(F)c(F)cc(F)c1F	i	-6	-13	-4	4	-8	-22	·
Cc1ccc(CNC(=O)CCS(=O)(=O)c2ccc3c(c2)oc(=O)n3C)cc1	i	-1	-6	-2	2	0	-11	-15
Fc1cccc(Cl)c1CSC1=NCCS1	i	-4	-3	1	1	10	-21	-1
C[C@@H]1CC=C[C@H]2[C@H]1C(=O)N(Cc1ccccc1)[C@H]2c1ccc(-c2ccc(N(C)C)cc2)cc1F	i	-12	34	-7	-11	-2	-10	30
COc1ccccc1C(=O)Oc1ccc2c(c1)O/C(=C\c1ccncc1)C2=O	i	-1	-4	-15	-1	?	1	16
CCc1ccc(NS(=O)(=O)c2ccc3c(c2)oc(=O)n3C)cc1	i	13	-17	-2	-4	5	-6	12
Cc1ccc(N(CC(=O)NN=C2CCN(C)CC2)S(=O)(=O)c2ccccc2)c(C)c1	i	8	0	-3	3	10	-13	-17
O=C(Nc1cc(F)cc(F)c1)c1ccc(NCCc2ccccc2)c([N+](=O)[O-])c1	i	-4	-6	-75	4	62	-16	-45	eIF4H FP inh retest=-4;PABP FP inh retest=3

Reprinted at random: 2 compounds from above.
SMILES	Rce1 inh	PABP FP inh	CSC inhib	MT1-MMP act inh	MT1-MMP act inh RFP	eIF4H FP inh	UUG fidelity	Env fusion inh	others
Fc1cccc(Cl)c1CSC1=NCCS1	i	-4	-3	1	1	10	-21	-1
O=C(Nc1cc(F)cc(F)c1)c1ccc(NCCc2ccccc2)c([N+](=O)[O-])c1	i	-4	-6	-75	4	62	-16	-45	eIF4H FP inh retest=-4;PABP FP inh retest=3

Going on with the list.
SMILES	Rce1 inh	PABP FP inh	CSC inhib	MT1-MMP act inh	MT1-MMP act inh RFP	eIF4H FP inh	UUG fidelity	Env fusion inh	others
CCOC(=O)c1[nH]c2c(c1-c1ccc(OC)cc1)C(=O)CC(c1ccc(OC)c(OC)c1)C2 (stereo not given)	i	-6	-16	-2	-4	4	-13	7
Cc1nc2c(ccc3nc(NC(=O)c4ccc(S(=O)(=O)N(C)C)cc4)sc32)s1	i	-6	9	0	-2	-4	-12	·
COc1cc(C(=O)N2CCCCC2c2cc(C(=O)NCc3cccnc3)no2)cc(OC)c1C (stereo not given)	·	·	·	1	0	·	0	?
COC(=O)c1ccc2nc(NC(=O)C(C)C)sc2c1	i	8	1	-1	-4	4	·	-67
COc1ccc(C(=O)Nc2ccccn2)cc1	i	2	-6	4	0	3	-11	·
CCn1c(C)nc2cc(-c3nc4n(n3)Cc3ccccc3-4)ccc21	i	8	92*	9	3	-2	-93	·
C[C@@H]1CN([C@H](C)CO)C(=O)CCCn2nncc2CO[C@@H]1CN(C)C(=O)c1cc(-c2ccccc2)on1	·	·	·	-2	4	·	-29&-8	-10[16.7 µM]
NC(=O)CCc1nc2cc(C(F)(F)F)ccc2n(Cc2ccccc2)c1=O	i	-4	0	1	-1	-7	-7	4
CSc1ccc(Cl)c(C(=O)OCC(=O)N2CC(C)OC(C)C2)c1 (stereo not given)	i	0	·	1	-3	-10	11	·
CCOc1ccc(C(=O)N/N=C/c2c(C)[nH]c(=O)[nH]c2=O)cc1	i	-4	-4	·	·	8	·	3
O=C(O)Cc1c(C(=O)O)[nH]c2ccc(C(=O)O)cc12	i	20	-9	0	3	45	-6	-10
COCc1ccc(C(=O)NCC2(N3CCCCC3)CCCCC2)cc1	i	24	-9	-3	0	20	6	-7
O=C(NC1=NCCS1)c1ccc(Cl)c(S(=O)(=O)N2CCc3ccccc32)c1	i	-3	10	-3	-9	3	·	7
CN(C)c1ccc(NC(=O)C(=O)C2C(=O)Nc3ccccc32)cc1 (stereo not given)	i	-6	-6	-8	4	-3	-4	-6
O=C(CCNC(=O)c1ccccc1)Nc1ccc(Cl)c(S(=O)(=O)N2CCCCC2)c1	·	·	-18	2	-10	·	20	·
CC(C)C(=O)NC(=S)Nc1ccccc1N1CCN(C(=O)c2ccccc2)CC1	i	6	6	-10	-6	2	-22	6
Cc1cc(Br)c(NC(=O)c2c(-c3c(Cl)cccc3Cl)noc2C)c(Br)c1	i	27	29	-1	0	64	-2	13	eIF4H FP inh retest=22;PABP FP inh retest=44
Cc1cc(N/N=C/c2ccccc2O)nc(-c2ccccc2O)n1	i	11	54	8	6	-3	·	-15
C/C(N)=C(/C#N)C(=O)CSc1nnc(Nc2c(C)cccc2C)s1	·	25	-7	-3&-2	2&0	6	-17	-25&20
C[C@@](Cc1ccc(O)c(O)c1)(NN)C(=O)O	·	2	·	3	1	3	-7	15
Cc1ccc(NC(=O)CSc2nc3nc(C)c(Br)cc3[nH]2)cc1F	i	-8	10	1	-1	9	-6	6
COC(=O)c1sccc1NC(=O)Cc1ccc(Br)cc1	i	17	4	-1	2	-6	-4	8
CN1/C(=C\C=C2/SC(=S)NC2=O)C(C)(C)c2ccccc21	i	?	43	-14	61	?	·	32
Cc1cc(OCC(=O)NCCN2CCOCC2)ccc1Br	i	-2	-2	0	-1	9	-31	·
O=S(=O)(Nc1nc2ccccc2nc1NCc1ccco1)c1ccccc1	i	15	5	-3	3	13	-14	·
O/N=C\c1ccccc1Oc1ccc(F)cc1	i	0	-1	-1	1	1	·	10
Cc1c(NC(=O)Cc2cccs2)cccc1[N+](=O)[O-]	i	-17	3	0	3	10	·	13
CC(C)Oc1c(N2CCOCC2)c(=O)c1=O	i	3	-6	-1	-1	-2	-11	-11
CC1CN(CC(=O)NC(C)c2ccccc2)CC(C)O1 (stereo not given)	i	-8	-8	0	3	-5	-19	1
Cc1cccc(C)c1OCC(=O)N/N=C/C=C/c1ccco1	i	6	-6	-4	0	88	·	-50	eIF4H FP inh retest=7;PABP FP inh retest=0
CC1CCC(NC(=O)CSc2nncs2)CC1 (stereo not given)	i	·	-7	2	2	·	-5	-4
O=C(NCCCN1CCOCC1)c1c(F)cccc1F	i	-9	-1	5	7	-8	-8	·
CCOC(=O)c1c(NC(=O)c2ccc(Br)o2)sc(C)c1CC	i	7	6	-10	-7	-5	·	·
FC(F)(F)c1cccc(Oc2ccc3c(C(F)(F)F)cc(C(F)(F)F)nc3n2)c1	i	1	11	-8	2	4	0	-49
COc1cc(OC)c(C(=O)Nc2ccc(N(C)C)cc2)cc1OC	i	6	2	10	4	14	-4	-43
Cc1c(C(=O)Oc2cc(N)n(S(C)(=O)=O)n2)cccc1[N+](=O)[O-]	i	-7	-3	4	1	-1	·	16
Cc1ccc(O)c(-c2cc(C(=O)NCc3ccncc3)[nH]n2)c1	·	10	-7	8	2	-10	-14	-59
CCOc1ccc(S(=O)(=O)NCc2cccnc2)cc1NC(=O)c1ccccc1F	·	-2	13	-1	-3	-10	-14	-5
COCCCNc1nc2ccccc2nc1NS(=O)(=O)c1ccc(C)c(C)c1	i	-8	-3	-6	-6	-9	-5	11
CS(=O)(=O)N(CCc1ccccc1)CC(=O)N1CCN(c2ccccc2)CC1	·	0	1	6	-10	-20	·	-12
COC(=O)C(Cc1ccccc1)NC(=O)CCNC(=O)c1ccco1 (stereo not given)	i	8	-6	-2	1	4	-7	-6
CCOC(=O)C1C(=O)CC(C)(O)C(C(=O)OCC)C1c1ccc(C)s1 (stereo not given)	i	0	6	3	5	-1	-4	-47
